Source: PubChem BioAssay (ICCB-Longwood Screening Facility, Harvard Medical School)
Choline anaer gr = inhibitors of anaerobic choline-dependent gram-negative bacterial growth; calls only; Gram-negative bacterium anaerobic choline minimal medium, absorbance growth; stronger effect = lower value; many inactives read as strong as hits in the columns shown; 0.2% of 55,000 active; AID 1963822;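 active = growth z-score on choline under -2 at 7 or 20 h with little or no fall on glycerol, limits in tiers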;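 note: stock transfer was 300 nL into about 50 µL; the organism is E. coli; final concentration not given here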
Choline anaer gr early = also measured in Choline anaer gr; calls as there; z-score; measured here: choline growth z-score, timepoint 1;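 score of optical density at 7 h as mean of two plates; lower means less growth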
An asterisk follows results filed as active; i = inactive; & = joins results of further samples. A portion of the library; rates above refer to the full screens.

SMILES | Choline anaer gr | Choline anaer gr early
CC(C)c1csc(-c2csc(S(=O)(=O)NCc3ccccc3Cl)c2)n1 | i | 2.38
O=c1[nH]c(SCc2ccccc2)nc2c(-c3ccccc3)c[nH]c12 | i | 0.68
CC(=O)N1c2ccc(S(=O)(=O)NC(Cc3ccccc3)C(=O)Nc3ccc(C)cn3)cc2CC1C (configuration not stated) | i | -1.1
CCNc1nc(N(CC)CC)nc(-n2cnc(SC)n2)n1 | i | 0.58
Cc1cc(-c2c(C)sc(C)c2S(=O)(=O)Nc2ccc(S(N)(=O)=O)cc2)on1 | i | 0.3
CCc1nnc(NC(=O)CCCc2nc(-c3cccnc3)no2)s1 | i | 0.09
CCC1=C(C)CN(C(=O)NCCc2ccc(S(=O)(=O)NC(=O)NC3CCC(C)CC3)cc2)C1=O (configuration not stated) | i | 0.54&0.47&-0.09
O=C(O)c1ccc(N2C(=O)c3[nH]nc(-c4ccccc4)c3C2c2cccc(O)c2)cc1 (configuration not stated) | i | 1.2
CCN(C(=O)c1cc2c(=O)oc3ccccc3c2n1C)c1ccccc1 | i | -0.73
Cc1nc(-c2cc(S(=O)(=O)N3CCN(c4cccc(Cl)c4)CC3)c(C)s2)cs1 | i | 0.77
Cc1ccc(Cn2c(=O)c3ccccc3n3c(=O)n(CC(=O)c4ccc(C)cc4C)nc23)cc1 | i | 2.29
Cc1c(C(=O)Nc2ccc(S(N)(=O)=O)cc2)nnn1-c1ccccc1 | i | 0.67
O=C(Cn1nc2n(CCc3ccccc3)c(=O)c3ccccc3n2c1=O)Nc1ccc2c(c1)OCO2 | i | -0.5
CCC12CN3CC(CC)(CN(C1)C3c1ccc(C(C)C)cc1)C2O (configuration not stated) | i | -0.06
O=C(Cc1csc(NC(=O)Nc2ccccc2)n1)Nc1ccc2c(c1)OCO2 | i | 0.65
Clc1ccccc1CCNc1nc(-c2nnc(-c3ccccc3)o2)nc2ccccc12 | i | -0.13
COc1ccc(C(=O)Nc2ccc(OC)c(CN3CCn4c(nc5ccccc54)C3)c2)cc1 | i | 0.89
CCc1cc(C2CCCN2S(=O)(=O)c2ccc(C(C)C)cc2)on1 (configuration not stated) | i | -0.18
Cc1ccc2nc(-n3nc(C)c4c3NC(=O)CC4c3ccc(Br)cc3)sc2c1 (configuration not stated) | i | 2.06
CC(CNC(=O)c1cccnc1)NC(=O)c1cccnc1 (configuration not stated) | i | -0.39
CCCc1nc(-c2cc3ccc(C)cc3nc2NC2CCCC2)no1 | i | 0.31
O=C(Nc1ccc(OCc2cc(=O)n3[nH]cnc3n2)cc1)c1ccc(F)cc1 | i | -0.22
Cc1ccc(-c2ncc3c(=O)n(CC(=O)O)c(=O)n(C)c3n2)cc1 | i | 0.23
C=C(C)CSc1nnc(-c2ccc(OC)cc2)n1-c1ccccc1 | i | 0.63
CCN1CCN(C(=O)[C@@H]2CCCN2C(C)=O)CC1 | i | -1.04
O=C(CSCc1nc(-c2cccc(F)c2)no1)N1CCNC1=O | i | -0.08
Cc1ccc(C(=O)Nc2cc(-c3noc(C)n3)sc2C)cc1 | i | -0.24
O=C1COc2ccc(S(=O)(=O)N3CCCC(C(=O)N4CCOCC4)C3)cc2N1 (configuration not stated) | i | -1.81
COc1ccc(CNC(=O)C2CCN(c3ncccc3-c3nc(-c4cccc(C)c4)no3)CC2)cc1 | i | 0.42
Cn1c(=O)n(CCC(=O)N2CCCC2)c(=O)c2cc(S(=O)(=O)N3CCCC3)ccc21 | i | 0.38
CN(CCc1noc(-c2ccc(F)cc2)n1)S(C)(=O)=O | i | -0.82
CCCOc1ccc(C(=O)NCc2csc(-c3ccccc3)n2)cc1 | i | 0.64
Cc1ccc(-n2nc(N3CCCN(C(=O)Nc4ccccc4Br)CC3)ccc2=O)cc1 | i | 0.88
CC(NC(=O)c1ccc(C2Nc3ccccc3S(=O)(=O)N2)cc1)c1ccccc1 (configuration not stated) | i | -0.07
O=C(Cn1nc2n(Cc3ccccc3)c(=O)c3ccccc3n2c1=O)c1cccc(Cl)c1 | i | -0.37
O=C(NCCc1ccccc1)C1=NS(=O)(=O)c2ccccc2N1 | i | 0.47
CCCN1CCN(C(=O)CN2C(=O)CCc3cc(S(=O)(=O)N4CCC(C)CC4)ccc32)CC1 | i | -0.46
COc1ccc(-c2nonc2NC(=O)COc2ccc(Br)cc2)cc1C | i | -0.41
CCc1cccc(C)c1NC(=O)CSC1=Nc2ccccc2N=C(c2ccccn2)C1 | i | 0.51
CCc1c(C)nc2nc(-c3ccccc3)nn2c1Nc1cc(OC)ccc1OC | i | -0.23
CCCCn1c(SCC(=O)OCC)nc2sc3c(c2c1=O)CCC3 | i | 0.48
CCN(CC)C(=O)c1ccc(O)c(OC)c1 | i | 0.21&0.58
Cc1nc2c(-c3ccccc3)c(C)nn2c(C)c1CC(=O)NCc1ccc(Cl)cc1 | i | 0.46
CCCNC(=O)c1cn(CC)nc1S(=O)(=O)N1CCC(C)CC1 | i | -0.52
CC(C)c1ccc(NC(=O)Cn2ncn3c(cc4ccccc43)c2=O)cc1 | i | 0.03
Clc1ccc(-c2csc3ncnc(NCc4ccc5c(c4)OCO5)c23)cc1 | i | 2.32
O=C(c1ccccc1)c1cnc2ccccc2c1S(=O)(=O)c1ccccc1 | i | -1.08
Cc1c(C)n(-c2ccccc2)c2ncn(CCC(=O)NCCCc3ccccc3)c(=O)c12 | i | -0.92
O=C1NCCN1Cc1ccccc1Cl | i | 0.35
O=C(NCCCN1CCCC1)C1=Cc2ccccc2OC1 | i | -1.42

The list goes on:
SMILES | Choline anaer gr | Choline anaer gr early
COC(=O)c1ccc2c(=O)n(-c3ccc(Cl)cc3)c(N3CCN(C)CC3)nc2c1 | i | -0.71
COC(=O)Cn1c(=O)oc2cc(S(=O)(=O)N3CCC(N(C)C(C)C)CC3)ccc21 | i | -0.04
Cc1cc(C)c(S(=O)(=O)N2CCC(N3CCN(Cc4ccccc4)C(=O)C3=O)CC2)c(C)c1 | i | 0.77
CCCc1cc(C2CCCN2Cc2ccc(C)s2)no1 (configuration not stated) | i | 0.64
Cc1c(NC(=O)c2cccc(F)c2)c(-n2cnnc2)nn1C | i | 1.18
Fc1cccc(-c2nc3ncccc3o2)c1 | i | -1.4
CC(C)Oc1ccc(NC(=O)C2CCCN(S(=O)(=O)Cc3ccccc3Cl)C2)cc1 (configuration not stated) | i | 1.72
Cc1c(Cl)cccc1NC(=O)Nc1ccc(CCc2nc3ccccc3[nH]2)cc1 | i | 2.05
O=C1CCc2cc(S(=O)(=O)N3CCc4ccccc4C3)cc3c2N1CCC3 | i | 0.58
CCOC(=O)c1c(C)n(CC)c2ccc(OC(=O)c3ccc(C)cc3)cc12 | i | -0.12

Arranged by formula weight (lowest first): part of the list above
SMILES | Choline anaer gr | Choline anaer gr early
O=C1NCCN1Cc1ccccc1Cl | i | 0.35
Fc1cccc(-c2nc3ncccc3o2)c1 | i | -1.4
O=C(NCCCN1CCCC1)C1=Cc2ccccc2OC1 | i | -1.42
CCCc1cc(C2CCCN2Cc2ccc(C)s2)no1 (configuration not stated) | i | 0.64
Cc1c(NC(=O)c2cccc(F)c2)c(-n2cnnc2)nn1C | i | 1.18
CCCNC(=O)c1cn(CC)nc1S(=O)(=O)N1CCC(C)CC1 | i | -0.52
CC(C)c1ccc(NC(=O)Cn2ncn3c(cc4ccccc43)c2=O)cc1 | i | 0.03
O=C(c1ccccc1)c1cnc2ccccc2c1S(=O)(=O)c1ccccc1 | i | -1.08
O=C1CCc2cc(S(=O)(=O)N3CCc4ccccc4C3)cc3c2N1CCC3 | i | 0.58
Cc1c(Cl)cccc1NC(=O)Nc1ccc(CCc2nc3ccccc3[nH]2)cc1 | i | 2.05
COC(=O)c1ccc2c(=O)n(-c3ccc(Cl)cc3)c(N3CCN(C)CC3)nc2c1 | i | -0.71
Cc1nc2c(-c3ccccc3)c(C)nn2c(C)c1CC(=O)NCc1ccc(Cl)cc1 | i | 0.46
Cc1c(C)n(-c2ccccc2)c2ncn(CCC(=O)NCCCc3ccccc3)c(=O)c12 | i | -0.92
CC(C)Oc1ccc(NC(=O)C2CCCN(S(=O)(=O)Cc3ccccc3Cl)C2)cc1 (configuration not stated) | i | 1.72
Cc1cc(C)c(S(=O)(=O)N2CCC(N3CCN(Cc4ccccc4)C(=O)C3=O)CC2)c(C)c1 | i | 0.77

Next records follow.
SMILES | Choline anaer gr | Choline anaer gr early
CC(C)NC(=O)C1CCN(C(=O)c2ccc(NC(=O)c3ccccc3Cl)cc2)CC1 | i | -0.51
CC1CCCC(C)N1C(=O)CSc1nnc(CN(c2ccc(F)cc2)S(C)(=O)=O)n1C (configuration not stated) | i | 0.07
CCC(=O)Nc1ccc(N(CC)Cc2ccccc2)c(C(=O)O)c1 | i | 1.2
CCCOc1ccc(C2N=C(N)Nc3nc4ccccc4n32)cc1 (configuration not stated) | i | -1.53
CCCCC(C)(O)C/C=C/[C@H]1[C@H](O)CC(=O)[C@H]1CCCCCCC(=O)OC (some centres not stated) | i | 0.33
CNC(=O)N1CCCC(C)(C(=O)NCc2ccc(F)cc2)C1 (configuration not stated) | i | -0.22
COc1cccc(-n2nnc3c(sc4nc(C)ccc43)c2=O)c1 | i | 0.33
CCOC(=O)Cn1c(=O)n(CC)c2ccccc21 | i | 0.35
COc1ccc(-c2nc(Nc3ccccn3)sc2C)cc1 | i | -0.26
Cc1noc2ncnc(N3CC(C)CC(C)C3)c12 (configuration not stated) | i | -0.48
O=C(NC1CCCc2ccccc21)c1cc(-c2ccccn2)nc2ccccc12 (configuration not stated) | i | 2.55
CCc1cc2c3c([nH]c2cc1S(=O)(=O)Nc1cccnc1)CCCC3=O | i | 0.59
Cc1cc(NCc2ccccn2)n2nc(C(F)(F)F)c(-c3ccc(F)cc3)c2n1 | i | 2.03
Cc1noc2nc(C)n(CC(=O)NCCC(C)N3CCCC3)c(=O)c12 (configuration not stated) | i | -0.12
CCOc1ccc(S(=O)(=O)N2CCc3nc(N4CCCCC4)ncc3C2)cc1 | i | 1.29
Cc1ccc(C(=O)NC(C)CCc2ccccc2)cc1NC(=O)c1nsc2ccccc12 (configuration not stated) | i | 0.53
O=c1ccn(-c2cccc(F)c2)nc1-c1nc(-c2cccc(Br)c2)no1 | i | 0
CCOc1ccccc1C1C2=C(CC(c3ccc(OC)cc3)CC2=O)Nc2onc(C)c21 (configuration not stated) | i | -0.18
Cc1nc2nc(Cc3ccccc3)[nH]n2c(=O)c1C | i | -0.53
COc1cn(CC(=O)NCCc2ccccc2)c(CN2CCCCC2)cc1=O | i | 0.03
Cc1ccn2c(=O)c(NC(=O)c3ccccc3)cnc2c1 | i | -1.41
COc1ccc(CCNc2cc(C)nc3c(-c4ccc(F)cc4)cnn23)cc1OC | i | -1.23
NC(=O)c1c(NC(=O)c2ccc3c(c2)OCCO3)sc2c1CCCCC2 | i | -0.36
Cc1ccc(OCC(=O)Nc2nnc(Cc3nc4ccccc4[nH]3)s2)cc1 | i | 0.91
COc1ccc(-c2ocnc2C(=O)NCCN2CCCCC2)cc1 | i | -0.05
O=S(=O)(c1ccccc1)N1CCN=C1N1CCN(c2cccc(Cl)c2)CC1 | i | -0.7
Cc1nc(-n2nc(C)c(Cl)c2C)sc1C(=O)N1CCCCC1C (configuration not stated) | i | 0.1
O=S(=O)(Cc1ccccc1)N1CCN(c2nc3ccccc3n3cccc23)CC1 | i | -0.23
CCC1=C(c2ccc(C)cc2)S(=O)(=O)N=C1N1CCC(C(=O)N2CCN(c3ccccn3)CC2)CC1 | i | -0.1
COc1ccccc1CNC(=O)c1ccc(Oc2nccnc2Sc2ccc(Cl)cc2)cc1 | i | 0.4
Cc1cccc(Cn2c(C)c(C)c3cc(C(=O)NCCC(C)C)ccc32)c1 | i | 0.14
CCOc1ccc(N2CCCCn3c2nc2c3c(=O)n(CC(C)C)c(=O)n2C)cc1 | i | 0.47
COc1ccc(-c2nn3c(-c4ccc(N(C)C)cc4)nnc3s2)cc1OC | i | 0.28
COc1ccc(Oc2ncnc3oc(C)c(C)c23)cc1 | i | 0.81
CCN1CCc2c(sc3c2CN(C(=O)NCCC(C)C)C(c2ccccc2)c2cccn2-3)C1 (configuration not stated) | i | -0.04
CCCCCn1c(CN(C)C(C)=O)nc2ccccc21 | i | 0.59
Cc1ccc2[nH]cc(C(O)CN3CCN(c4ccccc4F)CC3)c2c1 (configuration not stated) | i | -0.72
Cc1ccc(C)c(N2CCN(C(=O)c3nc4cc(C)c(C)cc4n(C)c3=O)CC2)c1 | i | 0.86
c1cc2c(cc1-c1noc(C3CCOC3)n1)nnn2CCN1CCCCC1 (configuration not stated) | i | -0.62
O=S(=O)(NCC1CCN(Cc2ccc(Cl)cc2)CC1)c1ccc2c(c1)-c1oncc1CO2 | i | -1.09
O=C(CSc1nc(=O)n(Cc2ccncc2)c2c1CCC2)N1CCCc2ccccc21 | i | -0.41
COc1ccc(NC(=O)CSc2nc3ccccc3n3cnnc23)cc1 | i | 0.78
O=C1CC(c2ccccc2Cl)CC2=C1C(c1cccnc1)Nc1ccccc1N2 (configuration not stated) | i | 1.42
CCOC(=O)c1oc2ccc(S(=O)(=O)Nc3ccc4c(c3)n(C)c(=O)n4C)cc2c1C | i | -0.62
CC(=O)Nc1ccc(C(=O)NC(=NCc2ccncc2)Nc2cccc(C(C)C)c2)cc1 | i | -0.01
Cn1cnc2cc(-c3noc(-c4cccc(Br)c4)n3)ccc21 | i | -0.51
O=C(CSc1nnc2c3ccccc3nc(-c3ccccc3)n12)N1CCc2ccccc21 | i | 0.54
COCCCNS(=O)(=O)c1cc(-c2ccc(=O)[nH]n2)ccc1Cl | i | -0.88
CCc1ccc(NC(=O)NCC(c2cccnc2)c2c[nH]c3ccccc23)cc1 (configuration not stated) | i | -0.23
